Source: PubChem (National Center for Advancing Translational Sciences (NCATS))
A488 autofl: compound fluoresces in the A488 spectral region. compound autofluorescence, A488 spectral region, dye equivalency; active compounds read high. max dye equivalency, M. actives 0.1% (n = 59,000). AID 591; active = above 10 nM dye equivalent; inconclusive = 1 to 10 nM; inactive = 1 nM or less; about half of its hits are not listed in these tables;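 note: highest value over a series up to 38 µM; compound alone in buffer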
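Intrinsic compound fluorescence is measured in 100 mM Tris buffer at pH 8.0 following 15 min incubation at room temperature. Intensities at 480 nm excitation/540 nm emission are calibrated to an on-plate A488 concentration series, giving dye-equivalent concentrations.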
A647 fluor: compound fluoresces in the A647 spectral region. max dye-equivalent concentration, M. Compound fluorescence, A647 channel (570/671 nm), Tris buffer. AID 592. 59,000 tested, under 10 active; active means above 1 µM dye equivalent; inconclusive means 0.1 to 1 µM; inactive means 0.1 µM or less;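 note: values scaled relative to a standard on each plate; highest value over a series up to 38 µM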
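Compounds pinned into 100 mM Tris pH 8.0, 15 min at room temperature, then read with 570 nm excitation/671 nm emission filters. Fluorescence normalized to an on-plate six-point Alexa 647 standard curve, giving dye-equivalent concentration per compound concentration.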
AID923: qHTS Assay for Allosteric/Competitive Inhibitors of Caspase-1: Spectroscopic Profiling in AFC Spectral Region. compound fluorescence, AFC spectral region (405/520 nm); almost no hit is shown here. actives 1.1% (n = 75,000). Potency, µM (highest dose often 57.5 µM), for the others: at the top dose fluorescence increase, hits mostly activators; active = well fitted activation curve with a large enough effect; inconclusive = small, poorly fitted or top-dose-only effect;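 note: potency is the fitted concentration of half-maximal effect; 0% is about no effect; scaled to a free AFC standard on each plate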
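Compound autofluorescence profiled at 405 nm ex/520 nm em during kinetic caspase 1 run (50 nM enzyme, 5 uM Ac-WEHD-AFC, HEPES pH 7.5, 10 mM DTT). Titration up to 57 uM; baseline from regression intercept, normalized to AFC standard curve.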
TSHR agonist: TSH receptor (human) agonism; HEK293-CNG-TSHR cells (CNG channel as cAMP sensor), membrane potential dye, cAMP; actives 0.48% (n = 73,000); Potency, µM (top dose mostly 57.1 µM), for the others: top-dose activation, actives largely listed as activators; P16473; active = well fitted activation curve of enough size with the parental cells flat; inconclusive = any curve in the parental cells; inactive = parental cells flat and receptor cells flat or falling; note: potency is the fitted concentration of half-maximal effect; % of control where 0% means no effect; weak receptor curves with flat parental cells got no call and are not listed
Target sequence (P16473 whole entry, looked up): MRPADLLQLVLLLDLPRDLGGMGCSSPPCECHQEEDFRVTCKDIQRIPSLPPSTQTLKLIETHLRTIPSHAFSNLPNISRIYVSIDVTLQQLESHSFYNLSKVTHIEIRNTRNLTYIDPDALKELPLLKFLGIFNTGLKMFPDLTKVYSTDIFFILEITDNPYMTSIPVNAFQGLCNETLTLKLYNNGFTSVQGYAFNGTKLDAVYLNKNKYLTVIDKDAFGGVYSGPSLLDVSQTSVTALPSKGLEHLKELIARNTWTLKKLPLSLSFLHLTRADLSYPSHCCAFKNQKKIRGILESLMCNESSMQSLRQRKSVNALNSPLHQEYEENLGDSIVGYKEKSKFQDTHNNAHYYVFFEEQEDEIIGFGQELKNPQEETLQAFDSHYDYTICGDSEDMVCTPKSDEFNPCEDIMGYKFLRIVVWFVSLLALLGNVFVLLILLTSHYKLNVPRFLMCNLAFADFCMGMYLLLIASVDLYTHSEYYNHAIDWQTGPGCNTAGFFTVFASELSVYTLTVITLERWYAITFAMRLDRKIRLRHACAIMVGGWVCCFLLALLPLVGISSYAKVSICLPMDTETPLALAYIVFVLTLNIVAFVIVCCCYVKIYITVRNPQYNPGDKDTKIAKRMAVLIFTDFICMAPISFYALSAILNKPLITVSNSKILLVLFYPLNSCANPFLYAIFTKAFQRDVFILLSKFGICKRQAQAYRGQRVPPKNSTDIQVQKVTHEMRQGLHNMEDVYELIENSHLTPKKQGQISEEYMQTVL
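cAMP rise detected as CNG-channel membrane depolarization by fluorescent dye (emission 590 nm), 30 min after compound, following 60 min dye loading containing 100 uM RO 20-1724 at room temperature. Cells: TSHR/CNG HEK 293, with parental CNG HEK 293 as control.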
Resorufin autofl: compound fluoresces in the resorufin spectral region; max dye-equivalent concentration, M; Compound fluorescence, resorufin region 547/598 nm, buffer; active compounds read high; actives 0.04% (n = 59,000); active = above 10 nM dye equivalent; inconclusive = 1 to 10 nM; inactive = 1 nM or less; a few of its hits are not listed in these tables; note: highest value over a series up to 38 µM
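Dye-equivalent concentration values derive from comparing each well's 547/598 nm fluorescence against resorufin standards included on every plate. Incubation was 15 min at room temperature in 100 mM Tris, pH 8.0.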
Active calls of the source: *; i = inactive; ? = inconclusive; · = not tested or not shown; [ ] = dose if it differs, or a comment. This is a subset. The share of hits here may be higher or lower than overall.

SMILES | A488 autofl | A647 fluor | AID923 | TSHR agonist | Resorufin autofl
CCCn1c(SCC(=O)Nc2cc(C)on2)nc2c1c(=O)n(C)c(=O)n2C | i | 1e-09 | 1.5% | 2% | i
COc1ccccc1-n1c(=S)sc2c(=O)n(Cc3ccco3)c(SC)nc21 | i | 5.1e-09 | 1.7% | ? | i
Cc1cc(C)c(C(=O)COC(=O)Cn2cnnn2)cc1C | i | 5.4e-08 | 1.2% | 3% | i
CC(=O)Nc1cc(NC(C)=O)c2nc(N)sc2c1 | i | 1.9e-08 | -2.1% | -4%[11.4 µM] | i
c1ccc(Nc2ncncc2-c2ccoc2)cc1 | i | 1e-09 | 3.3% | 7% | i
O=C(NCCOCC(F)(F)C(F)F)c1cc(F)c(F)cc1Cl | i | 5.3e-09 | -0.8% | 6% | i
O=C(Nc1c(-c2ccccc2)nc2c(Br)cc(Br)cn12)c1ccco1 | i | 4.2e-08 | -1.0% | ? | i
CCOC(=O)/C=C1\SCC(=O)N1CC(O)CN1C(=O)CS/C1=C\C(=O)OCC | i | 3.5e-08 | 0.2% | -2% | i
O=C1C2C(C(=O)N1Cc1cccnc1)C1C=CC2C12CC2 (stereo not drawn) | i | 2.4e-08 | -1.3% | 8% | i
CCN(CC)CC(=O)Nc1c(Br)ccc2c1OCO2 | i | 2.1e-08 | -0.8% | 5% | i
COC(=O)COc1ccc(Oc2cc(C)nc(SC)n2)nn1 | i | 4e-08 | 1.1% | 2% | i
CCCCC(CC)CNCC(CC)CCCC (stereo not drawn) | · | · | -1.3% | ? | ·
CC(C=O)Cc1ccc(C(C)(C)C)cc1 (stereo not drawn) | · | · | 1.4% | ? | ·
O=C(NC1CCN(C(=O)Nc2ccccc2)CC1)C1CCCCC1 | i | 9.1e-09 | 0.9% | 9% | i
Cc1cccc(C)c1OCC(O)CN (stereo not drawn) | i | 1e-09 | -0.5% | · | i
Cc1ccn2c(CCc3nnc4cc(C)ccn34)nnc2c1 | i | 1e-09 | -2.1%[11.5 µM] | 0%[11.4 µM] | i
Cc1c(NC(=O)CSc2nnnn2Cc2ccccc2)c(=O)n(-c2ccccc2)n1C | i | 1.4e-09 | -1.0% | -2% | i
COc1ccc(CNc2ncncc2-c2ccccc2C)c(OC)c1 | i | 1e-09 | -1.2% | ? | i
CCOC(=O)C1CCCN(C(=O)c2ccc(CS(=O)(=O)c3ccc(C)cc3)o2)C1 (stereo not drawn) | · | · | 2.7% | 21% | ·
O=C(CN1CCN(c2ccc(F)cc2)CC1)c1ccc2c(c1)OCO2 | · | · | 4.5% | 1% | ·
CC(C)OC(=O)CSc1nnc(-c2ccccn2)n1-c1ccccc1 | i | 2.3e-08 | -1.2% | 9% | i
O=C(CN1CCN(c2ccccn2)CC1)Nc1cccc(C(F)(F)F)c1 | i | 2.1e-08 | 0.1% | -1% | i
O=C(COc1ccc(F)cc1)N(CC1=CCS(=O)(=O)C1)c1ccccc1 | i | 1.2e-08 | 0.7% | 12% | i
Cc1cccc(NC(=O)Cn2cnc3sc(C)c(S(=O)(=O)N4CCC(C)CC4)c3c2=O)n1 | i | 1.2e-09 | -0.6% | 9% | i
c1ccc(Nc2c3c(nc4ncnn24)CCC3)cc1 | i | 3e-08 | 1.4% | 12% | i
O=C(CCNS(=O)(=O)c1cccc2nsnc12)NCCc1ccccc1 | i | 5.2e-09 | 1.0% | ? | i
CC(SC1CCCC1)C(=O)NC(C)(C#N)C(C)C (stereo not drawn) | i | 1e-09 | 0.7% | 0% | i
C=CCc1cccc(CNc2nc3ccccc3n2C(C)C)c1O | i | 1e-09 | · | · | i
Cc1[nH]c(N)nc(=S)c1CCCNc1ccccc1 | i | 4.7e-08 | -2.3%[11.5 µM] | 7%[11.4 µM] | i
O=C(O)Cn1nnnc1SCC(=O)Nc1ccc(OC(F)(F)F)cc1 | i | 1.4e-08 | 0.8% | -2% | i
c1nc(N2CCNCC2)c2sc3nc(N4CCOCC4)c4c(c3c2n1)CCC4 | i | 1e-09 | 0.3% | ? | i
CCOC(=O)c1cc2sc(C)cc2n1CC(=O)NCc1ccc(F)cc1 | i | 1.8e-09 | 0.9% | ? | i
CC(=O)N1CCc2cc(Br)cc(S(=O)(=O)NCCCN3CCC(C)CC3)c21 | i | 1.5e-09 | 1.0% | 0% | i
CCCC(=O)Nc1c2c(nn1-c1ccc(OC)cc1)CS(=O)(=O)C2 | i | 1e-09 | -0.3% | 23% | i
O=S1(=O)Nc2c(ccc3cccnc23)-c2ccccc21 | i | 3.2e-08 | 7.7% | ? | i
CCOC(=O)C1C2C=CC3(CN(c4ccccc4CC)C(=O)C13)O2 (stereo not drawn) | i | 6.8e-09 | 0.6% | ? | i
CCOC(=O)CSC1=Nc2ccccc2C2=NC(CC(=O)NCc3ccc4c(c3)OCO4)C(=O)N12 (stereo not drawn) | i | 2.2e-09 | 0.9% | -1% | i
Cc1ccc(CNC(=O)[C@H]2C[C@@H]2[C@H](NP(=O)(c2ccccc2)c2ccccc2)c2ccccc2)c(F)c1F | · | · | -1.1% | 10% | ·
CN(Cc1ccccc1)c1nc2c(c(=O)[nH]c(=O)n2C)n1CCSc1nc2ccccc2[nH]1 | i | 4.5e-09 | -1.7% | ? | i
N#Cc1nc(COc2cccc(Cl)c2)oc1N1CCCC1 | · | · | -3.0% | ? | ·
COc1cccc(CNC(=O)Cn2c(=O)oc3ccccc32)c1OC | · | · | 4.3% | -4% | ·
CCOC(=O)C1=C(N)N2C(=O)CSC2=C(C(=O)OC)C1 | i | 6.7e-08 | · | · | i
Cc1cccc(S(=O)(=O)c2c(N)n(/N=C/c3ccco3)c3nc4ccccc4nc23)c1 | i | 1e-09 | 6.5% | -7% | i
CC(=O)Nc1ccc(C(=O)CSc2nnc(-c3ccc(O)cc3)n2CC2CCCO2)cc1 (stereo not drawn) | i | 1.7e-09 | 1.7% | -4% | i
COc1ccc(CNc2nc3c(c(=O)[nH]c(=O)n3C)n2CCCc2ccccc2)cc1 | i | 1e-09 | 1.5% | -17% | i
CCOC(=O)Cn1c(=O)oc2cc(S(=O)(=O)NC3CCCc4ccccc43)ccc21 (stereo not drawn) | · | · | 1.9% | -5%[11.4 µM] | ·
CC(=O)Nc1cccc(-c2cnc3ccccc3n2)c1 | i | 5.3e-08 | 0.0% | -3% | i
Cc1cc(C(=O)N2CCN(c3ccccn3)CC2)c(C)o1 | · | · | 0.6% | -3% | ·
CCO[C@H]1O[C@@H]([C@H](COCc2ccccc2)OCc2ccccc2)[C@@H](OCc2ccccc2)[C@H]1O | i | 2.8e-08 | -0.6%[25.7 µM] | 7%[25.6 µM] | i
CS(=O)(=O)Nc1ccccc1C(=O)NCc1ccco1 | i | 2.8e-08 | -1.0% | 0% | i
CCOc1ccc2cc(S(=O)(=O)n3ccnc3C)ccc2c1 | · | · | 2.9% | ? | ·
COc1ccc(S(=O)(=O)N2CCCC(C(=O)O)C2)cc1Cl (stereo not drawn) | i | 1e-09 | 1.8% | 4% | i
CC(C)(C)NC(=O)NC(=O)COC(=O)COc1ccc2c(c1)CCC2 | i | 2.7e-09 | -0.4% | 5% | i
COc1ccc(OC)c(NC(=O)C2C3C=CC(C3)C2C(=O)NCc2ccccn2)c1 (stereo not drawn) | i | 6.8e-09 | 2.8% | -4% | i
Cn1c(CN2CCOCC2)nnc1SCC(=O)NCCc1ccccc1 | i | 1.1e-08 | -0.3% | 9% | i
COc1ccc(C(=O)Nc2cccc(C)c2)cc1 | · | · | 0.6% | 16%[11.4 µM] | ·
CCOc1cc(-c2nc(-c3ccc(C)nc3OC)no2)cc(OCC)c1OCC | i | 3.3e-08 | -1.7% | 3% | i
CC(=O)Oc1ccc(C(=O)Nc2nnc(C)s2)cc1 | · | · | -0.8% | -1%[11.4 µM] | ·
CCc1ccc2[nH]c(=O)c(CN(Cc3ccccc3)Cc3nnnn3Cc3ccco3)cc2c1 | i | 1.1e-09 | 3.0% | 19% | i
Oc1oc(-c2ccco2)nc1C=Nc1ccccc1 | i | 1e-09 | -0.8% | -10% | i

(continued)
SMILES | A488 autofl | A647 fluor | AID923 | TSHR agonist | Resorufin autofl
Cc1ccc2cccc(S(=O)(=O)NC3CCS(=O)(=O)C3)c2n1 (stereo not drawn) | i | 8.8e-09 | 0.6% | 23% | i
COc1ccc(C(=S)N2CCCC2)cc1C | · | · | -3.1% | 10%[11.4 µM] | ·
COc1ccccc1N1CCN(S(=O)(=O)c2ccc(F)cc2)CC1 | · | · | 0.1% | 3% | ·
COc1ccc(C(c2nnnn2Cc2cccs2)N2CCC(C(N)=O)CC2)c(OC)c1 (stereo not drawn) | i | 4.2e-08 | 0.5% | -1%[11.4 µM] | i
CC1CCCC(C)N1C(=O)CSc1nnc(NC(=O)c2cccs2)s1 (stereo not drawn) | i | 2.3e-08 | -0.4% | -2% | i
Cn1c(CNc2nc(-c3ccccc3)cs2)nnc1SCC(=O)c1ccccc1 | i | 5.1e-09 | 0.9% | -4% | i
Cc1ccc(C2CC(c3cccc(Br)c3)Nc3nnnn32)cc1 (stereo not drawn) | i | 3.4e-09 | -3.1% | 19% | i
CN(C)S(=O)(=O)c1ccc(/C(O)=C2/C(=O)C(=O)N(CCN3CCCCC3)C2c2cccnc2)cc1 (stereo not drawn) | · | · | 1.1% | 1% | ·
COc1cc(OC)cc(C(=O)N2CCN(Cc3cccc(F)c3)CC2)c1 | i | 2.3e-08 | 1.5% | 4% | i
CC(=O)Nc1cccc(NC(=O)C2CC(=O)N(c3ccc(C)cc3)C2)c1 (stereo not drawn) | i | 1.4e-08 | 0.3% | -6% | i
CN1CCCC(OC(=O)c2cc(Cl)ccc2Cl)C1 (stereo not drawn) | i | 1.6e-08 | 0.4% | 9% | i
COc1ccc(NC(=O)C2CCCN(C(=O)NC3CCCCC3)C2)cc1OC (stereo not drawn) | i | 1e-09 | 0.4% | -3% | i
CCN(CC)S(=O)(=O)c1cccc(C(=O)N2CC(O)CC2C(=O)O)c1 (stereo not drawn) | i | 1e-09 | -0.4% | 4% | i
COC(=O)c1cccc(NC(=O)C2COc3ccccc3O2)c1 (stereo not drawn) | i | 1e-09 | -4.7% | 23% | i
COc1ccc(-n2c(Cc3cccn3C)nnc2SCC(=O)Nc2cccc(NC(C)=O)c2)cc1 | i | 7.3e-09 | 0.0% | -1% | i
Cc1ccc(S(=O)(=O)Cn2nnnc2C(C(C)C)N2CCSCC2)cc1 (stereo not drawn) | i | 1.6e-08 | 0.7% | 2% | i
Cc1cc(Br)ccc1OCC(=O)N(Cc1nc(-c2ccccc2)no1)C(C)C | i | 3.2e-08 | -1.0% | ? | i
COC(=O)[C@@]1(Cc2ccc(OC)cc2)[C@H]2c3cc(C(=O)N4CCCC4)n(Cc4c(CO)[nH]cc(C)c4=O)c3C[C@H]2CN1C(=O)c1ccccc1 | · | · | -1.9% | 4% | ·
